Mtb H37Rv: M. tuberculosis H37Rv growth inhibitors, H37Rv strain (AID 1626); inhibition, % at 10 µM, or IC50 in µM where a hit was titrated; M. tuberculosis H37Rv growth inhibition; higher % means a stronger effect; 0.95% of 220,000 active;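 active means confirmed in a dose series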;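 further: bacteria incubated seven days before Alamar blue readout; 0% = bacteria only wells and 100% = bacteria with antibiotic wells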
Arbovirus inh: blocks arbovirus infection; arbovirus infection cell-based antiviral screen; AID 1251; inhibition, % at 10 µM; 0.37% of 200,000 active;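 active means inhibition from about 30%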;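 further: bluetongue infection of BSR cells; cell survival read as ATP light after 72 h; 0% = infected wells without compound and 100% = uninfected wells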
Mtb bLac sens: beta-lactam sensitization of Mtb H37Rv; 0.27% of 330,000 active; inhibition, % at 25 µM; M. tuberculosis H37Rv growth with meropenem, percent inhibition; hits of this screen are not shown here;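 active means about 74% or more and at least 40 points above the plate without the antibiotic, then above 30% in a dose series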;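 further: growth measured after seven days incubation then overnight dye step; 0% = bacteria only wells and 100% = bacteria with antibiotic; twin plates without the antibiotic show which effects depend on it; some results filed as inactive read as strong as hits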
YopH inh: YopH (Yersinia) phosphatase inhibition; 0.16% of 140,000 active; fluorescence Ex485/Em525; AID 898; inhibition, %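 (about 10 µM by stock and volumes)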;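 active means inhibition of 50% or more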;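 further: controls were vehicle for no effect and minimum signal wells for full effect; inactives centre near -20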
RecA intein inh: inhibitors of M. tuberculosis RecA intein splicing | cell-free RecA intein splicing, fluorescence | inhibition, %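 (about 9 µM by stock and volumes)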 | P9WHJ3 | 0.75% of 290,000 active; in the data active means inhibition above about 30%;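 further: 0% = vehicle wells and 100% = reference inhibitor control wells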
Target sequence (P9WHJ3 whole entry, looked up): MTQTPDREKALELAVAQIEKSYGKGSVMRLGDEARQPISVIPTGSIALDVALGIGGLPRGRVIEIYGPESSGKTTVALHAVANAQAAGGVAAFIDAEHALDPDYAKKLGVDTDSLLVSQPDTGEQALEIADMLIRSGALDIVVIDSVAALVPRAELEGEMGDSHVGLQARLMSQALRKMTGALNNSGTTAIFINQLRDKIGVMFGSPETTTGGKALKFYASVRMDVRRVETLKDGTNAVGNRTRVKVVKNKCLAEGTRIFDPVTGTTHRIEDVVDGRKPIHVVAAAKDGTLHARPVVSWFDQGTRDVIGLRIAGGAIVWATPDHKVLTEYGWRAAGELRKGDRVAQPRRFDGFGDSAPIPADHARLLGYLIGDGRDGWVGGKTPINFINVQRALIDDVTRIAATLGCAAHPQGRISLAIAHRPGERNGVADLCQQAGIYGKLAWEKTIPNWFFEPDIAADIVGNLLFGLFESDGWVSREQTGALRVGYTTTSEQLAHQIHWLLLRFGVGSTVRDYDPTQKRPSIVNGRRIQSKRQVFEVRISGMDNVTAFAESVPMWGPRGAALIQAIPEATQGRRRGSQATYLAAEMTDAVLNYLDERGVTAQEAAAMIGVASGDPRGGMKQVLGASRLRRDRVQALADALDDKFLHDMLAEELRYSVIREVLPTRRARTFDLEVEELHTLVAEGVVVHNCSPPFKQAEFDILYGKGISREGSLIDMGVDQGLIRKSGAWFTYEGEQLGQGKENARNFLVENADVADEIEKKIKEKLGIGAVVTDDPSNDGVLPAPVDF
Arbovirus inh repeat: also measured in Arbovirus inh; calls as there; inhibition, %; measured here: 10K subset replicate screen; many hits read low in the repeat;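 first of two repeat runs on a subset; 0% = infected and 100% = uninfected wells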
Starred values were filed as active, the others as inactive; · = not tested or not shown. This is a subset; count on the stated rates, not on these rows.

SMILES	Mtb H37Rv	Arbovirus inh	Mtb bLac sens	YopH inh	RecA intein inh	others
CCOc1ccc(CC(=NCCO)C2=C(O)CC(C)(C)CC2=O)cc1OCC	1%	12	2	-25	-3.1
N#Cc1c(-c2ccccc2)cc(-c2ccccc2)nc1Br	-9%	-6	-4	-23	1.9
CC(=O)Nc1ccc(S(=O)(=O)NCCS(=O)(=O)N2CCN(c3ccccc3F)CC2)cc1	·	·	-3	·	1.1
O=C1CC2(CCN(C(=O)COc3ccccc3F)CC2)Oc2ccccc21	·	·	-10	·	0.1
COCCNc1nc(N2CCCCC2)c2cnn(C)c2n1	·	·	-6	·	6.3
COc1cccc(Nc2ccccc2C(=O)O)c1	2%	12	-1	·	6.6
CC(C)(Oc1ccc(Cl)cc1)C(=O)Nc1ccncc1	-4%	10	-5	-36	2.0
COc1ccc2nc(NC(=O)CSc3nnnn3C3CCCCC3)sc2c1	1%	24	4	-14	6.9
Cc1oc2c(c1C(=O)N1CCC(C)CC1)C(=O)c1ccccc1C2=O	3%	-35	3	44	79*
COC(=O)Cc1c(O)ccn(CCc2ccc(S(N)(=O)=O)cc2)c1=O	·	·	0	·	0.3
CCCc1nc(SCc2cccnc2)c2c(=O)n(C)c(=O)n(C)c2n1	7%	-25	-2	-9	4.4
COc1ccc(OC(C)C(=O)Nc2ccccc2C(F)(F)F)cc1 (centres undefined)	7%	-8	-1	-26	0.6
CC1CN(CCOc2ccc(Cl)c(Cl)c2)CC(C)O1 (centres undefined)	·	·	-3	·	2.6
COc1cc(N2CCCC2)c(OC)cc1/C=C(/C#N)c1cccc(F)c1	8%	-5	66	-20	0.6
COc1ccc(-c2nnc(SC(C)C#N)o2)cc1 (centres undefined)	3%	2	1	-16	0.5
O=C(Nc1ccccc1)c1c(F)c(F)c(F)c(F)c1F	-6%	6	11	13	0.7
CC(C)CC(NC(=O)C1CCC(C)CC1)C(=O)Nc1ccc2c(c1)OCCO2 (centres undefined)	4%	-12	-12	1	3.5
NC(=O)CSc1cn(Cc2ccccc2)c2ccccc12	8%	-3	-4	·	1.3
O=C(COc1ccc(Cl)cc1)NCc1nnc2c3ccccc3c(-c3ccccc3)nn12	32%	-2	68	-18	6.5
CC(C)(C)c1ccc(C(=O)N2CCN(C(=O)C3CCCCC3)CC2)cc1	·	·	-5	·	-1.7
Cc1ccccc1N(CC(=O)NCCSCc1ccco1)S(C)(=O)=O	-4%	3	4	-51	2.3	Arbovirus inh repeat=-4
Cn1c(SCC(=O)Nc2ccccc2)nnc1-c1ccc(NC(=O)CCc2ccccc2)cc1	-1%	-2	-8	-13	0.5
CC(C)Cc1cc(C(=O)Nc2cccc(O)c2)no1	49%	·	69	·	-2.1
O=C(/C=C/c1ccco1)NC(=S)Nc1cccc(-c2nc3ccccc3o2)c1	5%	-9	-3	-51	7.7
CC(C)CCNC(=O)C12CN(Cc3ccccc3)CC1C(c1ccc([N+](=O)[O-])cc1)=NO2 (centres undefined)	4%	-3	-2	-32	3.9

(further entries)
SMILES	Mtb H37Rv	Arbovirus inh	Mtb bLac sens	YopH inh	RecA intein inh	others
CCc1ccc(Nc2ncccc2C#N)cc1	·	2	0	-31	-1.8
Cc1ccccc1CN1CCN(S(=O)(=O)c2ccc(Cl)s2)CC1	·	·	-6	·	17
O=C(Nc1ccccc1)N(C1=NCCCCS1)c1cccc2ccccc12	-4%	1	-5	-9	2.7
COc1ccc(C(=O)Nc2nnc(C3=COCCO3)o2)cc1OC	·	·	-13	·	0.9
CNc1nnc(-c2cccc(N(C)C)c2)s1	-3%	4	-3	-183	-2.5
CCC1(CC)C(=O)NC(=NCCc2c[nH]c3ccccc23)NC1=O	-7%	-4	-8	-10	1.7
COc1cc(/C=C2\N=C3CCCCCN3C2=O)ccc1O	-10%	2	7	1	-0.5
CCOc1ccc(OCC)c(NC(=O)C2CCN(c3cnccn3)CC2)c1	·	·	-4	·	-1.5
CN(C)/C=C(/C(=O)c1ccccc1)n1cncn1	-12%	2	2	·	-0.4
COc1ccc(/C=C(\C#N)C(=O)OCC(=O)NCc2ccc(Cl)cc2)cc1	2%	10	2	0	8.9
CCCC(=O)NC(=S)Nc1ccc(S(=O)(=O)N2CCc3ccccc32)cc1	·	·	-2	·	2.4
CC(=O)OC1CCC2(C)C(CCC3C2CC(OC(C)=O)C2(C)C3C[C@@H]3O[C@]4(CC[C@@H](C)CO4)[C@@H](C)C32)C1 (some centres undefined)	9%	·	5	·	3.2
Cc1cccc(C)c1NC(=O)N1CCC(n2c(=O)[nH]c3ccccc32)CC1	-4%	13	-4	-66	3.2
Cc1oc(C(C)(C)C)cc1C(=O)NC(Cc1ccccc1)C(=O)O (centres undefined)	-2%	-1	-3	·	0.4
Nc1nc(-c2c[nH]c3ccccc23)cs1	-2%	-7	7	-22	3.2
Cn1cc([N+](=O)[O-])c(C(=O)NCC(=O)O)n1	-19%	4	-2	·	-5.0
Cc1ccccc1NC(NC(=O)OCCn1c([N+](=O)[O-])cnc1C)C(Cl)(Cl)Cl (centres undefined)	2%	1	15	-21	1.2
O=C(CCCCCNC(=O)N1CCn2c1nc1ccccc12)N[C@H](Cc1ccccc1)C(=O)O	·	·	-5	·	0.9
Cc1ccc(S(=O)(=O)N2c3ccccc3OCC2C(C)(C)C)cc1 (centres undefined)	-3%	2	4	-26	20
CCCOc1ccc(C(=O)NC2CCSc3ccccc32)cc1 (centres undefined)	·	·	0	·	1.0
CC(C)(C)c1ccc(NC(=O)COC(=O)c2ccc(NS(=O)(=O)c3ccc(F)c(F)c3)cc2)cc1	2%	-10	2	-28	0.0
Cc1ccccc1NC(=O)C1CC(=O)OC12CCOC(C)(C)C2 (centres undefined)	-3%	1	-1	·	·
COc1cc(OC)c(OC)cc1/C=N/NC(=O)CCc1c(C)n[nH]c1C	-11%	·	1	·	-4.1
COc1cccc(/C=N/n2cnnc2)c1OCc1ccccc1	-1%	7	-4	0	0.1	Arbovirus inh repeat=-4
CC(C)C[C@@]12C(=O)N(c3cccc(F)c3)C(=O)N1[C@H](c1ccc(Br)cc1)[C@@H]1C(=O)N(C(C)(C)C)C(=O)[C@@H]12	·	·	-8	·	6.6

The results go on:
SMILES	Mtb H37Rv	Arbovirus inh	Mtb bLac sens	YopH inh	RecA intein inh	others
O=C(O)C1=C(C(=O)Nc2cc(C(F)(F)F)ccc2Cl)CCCC1	-4%	3	-7	·	-0.9
Cc1ccc2c(CC(=O)N(CC3CCCO3)c3c(N)n(Cc4ccccc4)c(=O)[nH]c3=O)coc2c1 (centres undefined)	·	·	1	·	4.5
O=[N+]([O-])/C=C/c1cn(Cc2ccc(F)cc2)c2ccccc12	10%	-48	92	-34	1.5
CCOC(=O)N1CCN(CC(=O)Nc2nc3ccccc3s2)CC1	·	·	5	·	1.8
Clc1ccc(CSc2nnc(/C=C/c3ccccc3)o2)c(Cl)c1	-1%	-2	-5	-29	0.2
C=CCN(c1ccc(OC)cc1)S(=O)(=O)c1ccc(Cl)c(C(=O)OCC(=O)NC2CC2)c1	-6%	8	-9	·	5.3
CCN1CCc2c(OCC(=O)N3CCc4ccccc43)cccc2C1=O	0%	7	-3	·	0.3
COc1ccc(-n2nc(C(=O)NCC(=O)Nc3cccc(Cl)c3)c3ccccc3c2=O)cc1OC	·	·	8	·	3.0
CCOC(=O)Cc1nn2c(=O)cc(C)nc2s1	-5%	15	-2	-20	-2.4
COCC(=O)OCC(=O)N1N=C(c2ccc(Cl)cc2)CC1c1ccco1 (centres undefined)	-3%	-3	1	·	8.9
COc1ccc(CNC(=O)C2CCN(S(=O)(=O)N3CCCC3)CC2)cc1	·	·	1	·	0.6
C[N+]1(C)CCCC(OC(=O)C(O)(c2ccccc2)c2ccccc2)C1 (centres undefined)	5%	·	-3	·	-7.7
Cc1ccc(S(=O)(=O)CCC(=O)OCC(=O)NCCc2ccccc2)cc1	·	·	-15	·	-0.1
Cc1c(C(=O)Nc2cccc([N+](=O)[O-])c2)sc2ncn(CC(=O)N3CCOCC3)c(=O)c12	·	·	6	·	-0.6
CCCCNC(=O)C1(O)c2cc(Br)ccc2NC(=O)N1c1cccc(OC)c1 (centres undefined)	·	·	0	·	0.3
CN1CCN(C(=S)NC(=O)c2ccc(Cl)cc2)CC1	-1%	81*	·	·	-2.7
COCC(C)n1c(SC(C)C(=O)NC2CCCCC2C)nc2ccccc2c1=O (centres undefined)	·	·	-14	·	-2.4
COc1ccc(C2=NS(=O)(=O)N(C)C(C(=O)NCc3ccco3)=C2)cc1OC	·	·	7	·	5.8
COc1ccc(CNCCc2c[nH]c3ccccc23)c(OC)c1C	·	·	5	·	0.7
COc1ccc(C(=O)Nc2sc(C(=O)N(C)C)c(C)c2C#N)cc1[N+](=O)[O-]	0%	-1	-2	-17	-10.0
CC(=O)c1cccc(NC(=O)C(CC(C)C)NC(=O)C2CCCCC2)c1 (centres undefined)	5%	0	-3	·	-0.5
Cc1cn2c(N)c(C=C3C=C(Cl)C(=O)C(Cl)=C3)c(=O)nc2s1	6%	-11	·	·	·
CC1Cc2ccccc2N1C(=S)NC(=O)c1ccco1 (centres undefined)	13%	-2	73	·	2.5
Fc1ccccc1-c1n[nH]c(=S)n1C1CC1	·	·	3	·	-0.3
O=C(Cn1nnc2ccccc2c1=O)NCc1ccco1	-5%	7	-6	-34	-3.8

2 compounds drawn at random from the list so far, as already listed:
SMILES	Mtb H37Rv	Arbovirus inh	Mtb bLac sens	YopH inh	RecA intein inh	others
Cc1ccc(S(=O)(=O)CCC(=O)OCC(=O)NCCc2ccccc2)cc1	·	·	-15	·	-0.1
CCN1CCc2c(OCC(=O)N3CCc4ccccc43)cccc2C1=O	0%	7	-3	·	0.3

Remaining list, next part
SMILES	Mtb H37Rv	Arbovirus inh	Mtb bLac sens	YopH inh	RecA intein inh	others
COc1ccccc1C1/C(=C(/O)c2ccc(C)cc2)C(=O)C(=O)N1CCN1CCOCC1 (centres undefined)	-1%	-6	3	-1	1.6
O=C1N=c2ccccc2=C1c1sc(NS(=O)(=O)c2ccccc2)nc1O	-12%	4	2	·	10
COC(=O)c1ccc(/C=N/Nc2nc(-c3ccc(C)cc3)cs2)cc1	-7%	-1	·	-19	-2.7
O=C1CC(c2ccc(F)cc2)Cc2nc(NCc3ccco3)ncc21 (centres undefined)	6%	9	-8	-49	2.2
Clc1cc(Cl)c(OCCCCn2cncn2)c(Cl)c1	·	·	-4	·	0.5
O=c1cc([O-])[n+]2c3n1CCCN3CCC2	-1%	-1	-6	-24	0.7
COc1cccc(CNC(=O)CCCc2nnc3n(C)c(=O)c4sccc4n23)c1	·	·	4	·	0.4
C=CCOC(=O)C1=C[C@H](c2ccc(C(F)(F)F)cc2)[C@@H](CCCO)[C@H](OCC)O1	-11%	3	-1	·	1.0
O=C(CNC(=O)c1ccco1)Nc1ccc(Cl)cc1	·	·	-1	·	-1.1
C=CCOc1ccc(C2CC(C)=NN2c2ccccc2)cc1 (centres undefined)	0%	-2	3	-36	-1.6
CCCSc1nc2c(c(=O)n(C)c(=O)n2C)n1C	0%	·	6	·	-0.2
CC(=O)NCCn1c(SCC(=O)NC2CCCCC2)nc2ccccc2c1=O	5%	6	5	·	0.3

Of the compounds above, these contain a furan ring, fused or not:
SMILES	Mtb H37Rv	Arbovirus inh	Mtb bLac sens	YopH inh	RecA intein inh	others
Cc1oc2c(c1C(=O)N1CCC(C)CC1)C(=O)c1ccccc1C2=O	3%	-35	3	44	79*
Cc1ccccc1N(CC(=O)NCCSCc1ccco1)S(C)(=O)=O	-4%	3	4	-51	2.3	Arbovirus inh repeat=-4
O=C(/C=C/c1ccco1)NC(=S)Nc1cccc(-c2nc3ccccc3o2)c1	5%	-9	-3	-51	7.7
Cc1oc(C(C)(C)C)cc1C(=O)NC(Cc1ccccc1)C(=O)O (centres undefined)	-2%	-1	-3	·	0.4
Cc1ccc2c(CC(=O)N(CC3CCCO3)c3c(N)n(Cc4ccccc4)c(=O)[nH]c3=O)coc2c1 (centres undefined)	·	·	1	·	4.5
COCC(=O)OCC(=O)N1N=C(c2ccc(Cl)cc2)CC1c1ccco1 (centres undefined)	-3%	-3	1	·	8.9
COc1ccc(C2=NS(=O)(=O)N(C)C(C(=O)NCc3ccco3)=C2)cc1OC	·	·	7	·	5.8
CC1Cc2ccccc2N1C(=S)NC(=O)c1ccco1 (centres undefined)	13%	-2	73	·	2.5
O=C(Cn1nnc2ccccc2c1=O)NCc1ccco1	-5%	7	-6	-34	-3.8
O=C1CC(c2ccc(F)cc2)Cc2nc(NCc3ccco3)ncc21 (centres undefined)	6%	9	-8	-49	2.2
O=C(CNC(=O)c1ccco1)Nc1ccc(Cl)cc1	·	·	-1	·	-1.1
